From PubChem
NPYLR7 ag – agonists of mosquito NPYLR7 receptor, primary screen, cell-based, Aedes aegypti, calcium fluorescence, mosquito biting behavior. Aedes aegypti neuropeptide Y-like receptor 7 (NPYLR7). HEK293T NPYLR7/Galpha15, GCaMP6s calcium fluorescence. activation, % at 10 µM. hit rate 0.15% among 270,000. AID 1259423, 2018; in the data active = activation above about 40%;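 note: 0% = vehicle and 100% = reference agonist at the receptor; some compounds past the cut are filed as inactive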
NPYLR7 ag max-min – recorded beside NPYLR7 ag, whose call it bears; activation, %; measured here: Max-Min RFU normalised activation; some inactives read as strong as hits;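 span of the calcium signal over five minutes; 0% = vehicle and 100% = native peptide agonist; compound fluorescence can raise it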
Active calls of the source: *; & = joins results of further samples.

SMILES | NPYLR7 ag | NPYLR7 ag max-min
Cc1ccc(N2CC(NC(=O)Nc3ncccc3C)CC2=O)cc1 (stereo not drawn) | 19 | 16
COc1ccc(Cl)cc1C1=NOC2(CCC2)C(=O)N1Cc1ccc(NC(C)=O)cc1 | 11 | 2
COc1cc(C(=O)N2CCN(C(=O)c3cccnc3)CC2)cc(OC)c1OC | 6 | 4
Cc1cc(C)c(S(=O)(=O)n2nc(C)c(C)c2C)c(C)c1 | 3 | 3
COCC(=O)Nc1nnc(SCc2ccc(C(F)(F)F)cc2)s1 | 5 | 7
COC(=O)C1(c2nc(C(C)C)nn2-c2ccc3c(c2)OCCO3)CC1 | 3 | 0
O=C(CCn1cnc2ccc(Cl)cc2c1=O)NC(=O)Nc1ccc2c(c1)OCCO2 | 8 | 4
O=C(OCc1ccccc1)N1CCc2n[nH]c(=O)cc2C1 | 0 | -5
CCOc1ccc(/C=C2/SC(=Nc3ccccc3)NC2=O)c(OCC)c1 | 8 | 4
Cc1cc(C2CCCN2C(=O)c2cc(C)sc2NC(=O)C(C)(C)C)on1 (stereo not drawn) | -3 | -5
C/C=C(\C)CN1CCCC(C(=O)Nc2ccc(-c3cscn3)cc2)C1 (stereo not drawn) | -5 | -8
Cc1ccc2occ(CN3CCN(Cc4ccsc4)C(CCO)C3)c(=O)c2c1 (stereo not drawn) | 3 | 0
CCc1ccc(NC(=O)N2CCC3(CC2)SCCN3C(=O)c2ccc(Cl)cc2Cl)cc1 | -6 | 4
COC(=O)COc1cc2c(-c3cc4cccc(OC)c4o3)cc(=O)oc2cc1C | 0 | -2
Cc1cc(CN(C)S(=O)(=O)N2CCCCC2)no1 | -7 | -6
COc1cccc(CN2CCCC3(CCN(C(=O)C4=NNC(=O)CC4)C3)C2=O)c1 (stereo not drawn) | 23 | 4
COc1cc(C)c(S(=O)(=O)Nc2cccc(C)c2C)cc1C | -1 | 0
O=C(Nc1ccc(N2CCC(Cc3ccccc3)CC2)c(C(=O)NCC2CCCO2)c1)c1cc(Cl)cc(Cl)c1 (stereo not drawn) | 20 | 25
Cc1ccc(Cc2nsc(N3CCN(C(=O)C(c4ccccc4)c4ccccc4)C(C)C3)n2)cc1 (stereo not drawn) | 11 | 12
Cc1ccc(Cc2nc(N3CCCN(C(=O)c4ccc([N+](=O)[O-])cc4Cl)CC3)c3c(C)nn(-c4ccc(F)cc4)c3n2)cc1 | 8 | 7
Cc1ccsc1[C@@H]1CCN(C(=O)c2ccncc2Cl)C[C@H]1O | 0 | -3
CCCCC/C=C/C1=C(CO)C(O)C2OC2(C/C=C(\C)C(=O)O)C1O (stereo not drawn) | -2 | -10
CC(C)Oc1ccccc1CN1CCS(=O)C(C)C1C (stereo not drawn) | -1 | -3
Cc1cc(C)cc(OCc2nc(CN(C(=O)c3ccc(F)cc3)C3CC3)cs2)c1 | -2 | 4
Cc1ccc(NC(=O)NC2CCN(c3ccccc3C(=O)N3CCN(C4CCCCCC4)CC3)CC2)cc1 | 22 | 14
CCc1ccccc1NC(=O)N1CCc2nc(Cc3ccccc3OC)nc(N3CCOCC3)c2C1 | 9 | 13
O=C(c1ccccc1)N1N=C(c2ccc([N+](=O)[O-])cc2)CC1c1ccccc1 (stereo not drawn) | -5 | -10
CC(C)N(Cc1ccccc1)c1ncnc(N)c1[N+](=O)[O-] | -6 | -5
C/C(=C\c1ccccc1)C1Nc2ccccc2C(=O)N1C (stereo not drawn) | -2 | -1
CCOC(=O)C1(Cc2ccccc2C)CCCN(C(=O)CCCn2cncn2)C1 (stereo not drawn) | 2&-6 | 0&-9
O=C(NC(c1cccnc1)C(F)(F)F)c1cccc2ccnn12 (stereo not drawn) | -1 | -4
CN1CC2(CCCN(CCCCOc3ccccc3)C2)OC1=O (stereo not drawn) | 2 | 2
Cc1nc(Cl)cc(N2CCN(CCOc3ccccc3)CC2)n1 | 1 | 0
c1ccc(-c2cnc3ccccc3c2)c(OCCn2ccnc2)c1 | 7 | 4
N#Cc1cnc2ccccc2c1N1CCC2(CC1)OCCO2 | -3 | -7
COCCN(CC(=O)N(CCc1c[nH]c2ccccc12)Cc1ccccc1OC)C(=O)c1cccc(Cl)c1 | 9 | 7
CCCCOCCOCC(=O)N1CCN(Cc2cccc(-c3noc(-c4cccc(Cl)c4)n3)c2)CC1 | 24 | 13
O=C(Nc1cccc(OCc2cscn2)c1)N1CCOCC1 | 0 | -4
Clc1cc(CNCC2COc3ccccc3O2)cc2c1OCCO2 (stereo not drawn) | 14 | 10
CCCCCCNC(=O)Cc1csc(NC(=O)CN(C(=O)c2ccc(Cl)c(Cl)c2)C(C)C)n1 | -5 | 0
Cc1ccc(C(=O)NCCOc2ccc(-c3ccc(C)cc3)nn2)cc1 | -4 | -5
Nc1nc(Nc2ccc(Cl)cc2)nc(NCC2CCCO2)c1[N+](=O)[O-] (stereo not drawn) | 1 | 1
C[C@H](C(=O)NCC(C)(C)C)N1Cc2ccc(N3CCOCC3)nc2C1=O | 5 | 0
CC(=O)Nc1cnc(-c2ccccc2CN(C)C)cn1 | 4 | 1
CC(C)(C)n1nc2c(c1NC(=O)c1ccc(S(=O)(=O)N3CCOCC3)cc1)CSC2 | 0 | 1
CCC(C(=O)Nc1c(C)nc2sccn2c1=O)c1ccccc1 (stereo not drawn) | 9 | -2
COc1ccc(OC)c(CN2CCCn3cccc3C2c2ccoc2)c1 (stereo not drawn) | 10 | 17
c1cncc(CN2CN=C3NC(c4cccs4)n4c(nc5ccccc54)N3C2)c1 (stereo not drawn) | 2 | 1
Cn1cc(C=Nc2ccccc2)c2ccccc21 | -1 | -1
CCOc1nn(CC)cc1C(=O)N1CC(C)CC(C)C1 (stereo not drawn) | 2 | 1
CS(=O)(=O)c1ccc2c(c1)N(Cc1ccn(-c3ccccc3)n1)CCO2 | 5 | 2
COc1ccc(C2c3[nH]c4ccccc4c3CCN2CCCn2cccn2)cc1C (stereo not drawn) | 15 | 3
O=C(c1cc(-n2cccc2)ccc1O)N1CCC2(CC1)C(=O)Nc1ccccc12 | -6 | -4
COc1ccccc1-c1nc(COC(=O)c2nnn(-c3ccc(Br)cc3)c2C)c(C)o1 | 7 | -4
CCOc1nc(-c2ccc(OC)cc2)n(-c2ccc(NC(=O)c3ccc(C(F)(F)F)cc3)cc2)n1 | 4 | 7
CCN(CC)C(=O)CSc1nc(N)c(NC(=O)c2ccc(Br)cc2)c(=O)[nH]1 | 4 | 7
Cn1cc(CC(C#N)C(=O)Nc2cccc(O)c2)c2ccccc21 (stereo not drawn) | 1 | 8
CC(C)c1nccc(CN(C)Cc2ncc[nH]2)n1 | 0 | -7
CON(C)C(=O)C(C(C)C)n1cnc2cc(F)c(F)cc21 (stereo not drawn) | -1 | 5
O=C(c1ccc(F)cc1)N(Cc1nccn1Cc1ccc(C(F)(F)F)cc1)C1CC1 | 22 | 26

Other structures
SMILES | NPYLR7 ag | NPYLR7 ag max-min
COC(=O)C1C(=N)OC2=C(C(=O)CCC2)C1c1ccc(Br)cc1 (stereo not drawn) | 3 | 1
O=C(c1ccccc1C(F)(F)F)N1CCN(C(c2ccccc2)c2ccc(Br)cc2)CC1 (stereo not drawn) | -10 | -11
O=C(CSC1=NS(=O)(=O)c2cc(Cl)ccc2N1)NCCc1ccccc1 | 14 | 9
COC1CCN(Cc2cn(-c3ccc(F)cc3F)nc2-c2ccccc2C)CC1 | 9 | -2
O=C(c1ccc(Cl)cc1)N1CCSC1c1cccc(Oc2ccccc2)c1 (stereo not drawn) | 22 | 27
Cc1ccc2c(c1)OCCN2C(=O)c1ccc(-n2ccnc2)cc1 | 6 | -9
O=C1/C(=C/c2ccc(Br)cc2)C=C(c2ccccc2)N1c1cccc(Cl)c1Cl | 0 | 4
Cc1ccc(C(=O)N2C(C(=O)NCc3cccnc3)COC23CCN(C(=O)c2cccc([N+](=O)[O-])c2)CC3)cc1 (stereo not drawn) | 9 | 3
COc1ccc(-c2cccc(-c3ccc(NC(=O)COc4ccccc4)cc3)n2)cc1 | 19 | 20
COCc1cc(C)nc(N/N=C\c2ccccc2Cl)c1C#N | 3 | -7
c1csc(CNc2c3c(nc4nncn24)CCC3)c1 | 1 | 1
Brc1ccc(C=NNC2=Nc3cccc4cccc2c34)cc1 | 26 | 21
O=c1cc(CSc2cccc(Br)c2)occ1O | 17 | 14
CC(C)COc1ccc(NC(=O)c2cn[nH]n2)cn1 | 2 | 4
Cc1ccc2nc(SCC(=O)N3CCc4c(c(C(=O)NC5CCCC5)nn4CC(C)C)C3)[nH]c2c1 | 21 | 12
Cc1cc(C(=O)N(CC2CCCO2)c2nc3c(C(C)C)cccc3s2)no1 (stereo not drawn) | -2 | -2
CNC(=O)COc1ccc(/C=C/c2ccccc2)cc1 | 4 | 1
CC(C)(Cc1c[nH]c2ccccc12)NC(=O)c1ccccc1-c1ccc(S(C)(=O)=O)cc1 | -9 | -13
CC(C)Oc1ccc2nnc(C(F)(F)F)n2n1 | 0 | -4
COC(=O)NC1CC(C)CC(C)(C)C1 (stereo not drawn) | -1 | 0
CCN1C(=O)C2(SC(C)(C)CN2C(=O)Nc2ccccc2F)c2cc(F)ccc21 (stereo not drawn) | 5 | 4
Cc1cc(CN2CCN(C3CCCCC3)CC2)cs1 | 0 | -1
CC(C)Cn1ccnc1CNC(=O)Nc1cnn(C(C)C)c1 | -3 | -10
Cc1ccc(C(=O)Nc2ncn[nH]2)cc1Cl | -3 | -4
CCOc1cccc2c1OCC(C(=O)OC)C2 (stereo not drawn) | 8 | 8
CC(C)(C)c1ccc(NC(=O)CCn2cncn2)cc1 | 7 | 5
CN(Cc1nc2ccccc2c(=O)[nH]1)C(=O)c1cccc(Cl)c1Cl | -5 | -4
Cc1ccc(NCN2C(=O)c3ccccc3C2=O)cc1 | -11 | -12
CCCCCc1ccc(C(=O)Nc2ccc(C3NC(=S)N(C)C(C)=C3C(=O)OCCOC)cc2)cc1 (stereo not drawn) | -1 | 6
CCOC(=O)N=Nc1c(O)[nH]c2c(C)c(C)ccc12 | -2 | -4
O=C(NCCN1CCc2ccccc2C1)Nc1cccnc1 | 1 | 0
CN(C)C(=O)COC(=O)c1ccccc1CCc1ccccc1 | -10 | -8
CCn1c(C2CCCN(C(=O)Cc3ccc4c(c3)OCO4)C2)nn(C)c1=O (stereo not drawn) | 13 | 8
CC(C)c1nnc(SCc2ccccn2)c2c1cnn2-c1ccccc1 | -12 | -18
C#CCN1CCCCC1C(=O)N1CCN(c2cccc(Cl)c2)CC1 (stereo not drawn) | 4 | -19
O=C(c1ccc([N+](=O)[O-])s1)N(CCN1CCOCC1)c1nc2ccccc2s1 | 11 | 4
CC1CCc2c(sc3nc(C(C)N4CCOCC4)[nH]c(=O)c23)C1 (stereo not drawn) | 9 | 4
CCCc1nnc(C(=O)N(C)Cc2ncc[nH]2)o1 | -3 | -6
CCCn1cc(C2CCN(S(=O)(=O)c3cccc(OC)c3)CC2)c2ccccc21 | 3 | -3
C#CCNC(=O)Cc1coc2cc(CC)ccc12 | 12 | 3

Reprinted at random: 6 entries already listed
SMILES | NPYLR7 ag | NPYLR7 ag max-min
CCOc1cccc2c1OCC(C(=O)OC)C2 (stereo not drawn) | 8 | 8
CCCc1nnc(C(=O)N(C)Cc2ncc[nH]2)o1 | -3 | -6
CCCCCc1ccc(C(=O)Nc2ccc(C3NC(=S)N(C)C(C)=C3C(=O)OCCOC)cc2)cc1 (stereo not drawn) | -1 | 6
Cc1cc(CN2CCN(C3CCCCC3)CC2)cs1 | 0 | -1
CCOC(=O)N=Nc1c(O)[nH]c2c(C)c(C)ccc12 | -2 | -4
CN(C)C(=O)COC(=O)c1ccccc1CCc1ccccc1 | -10 | -8

(continued)
SMILES | NPYLR7 ag | NPYLR7 ag max-min
O=C(NC1CCN(c2ccccc2C(=O)NC2CC2)CC1)OCc1ccccc1 | -1 | 5
Cc1noc(C)c1CCC(=O)N1CCN(c2ccccc2Cl)CC1 | -2 | -2
COc1ccc(CC(CC(=O)N[C@@H]2C[C@@H]3C[C@H]([C@H]2C)C3(C)C)C(=O)N[C@@H]2C[C@@H]3C[C@H]([C@H]2C)C3(C)C)cc1 (stereo partly drawn) | 3 | 3
COc1ccc(C(=O)C2CCCN(C(=O)CCc3ccccc3OC)C2)cc1F (stereo not drawn) | 2 | -4
O=C(c1ccc2c(c1)OCO2)C1CCCN(C(=O)c2csc(-c3cccs3)n2)C1 (stereo not drawn) | -4 | -5
CC(C)COc1nc(-c2ccc3c(c2)OCO3)n(-c2ccc(NC(=O)c3cccc(F)c3)cc2)n1 | -2 | 1
Clc1ccc(Cn2ncc3c(N4CCN(C5CCCC5)CC4)ncnc32)cc1 | 6 | 4
COc1ccc(CN2CCC2(C)C(=O)Nc2cnc3ccccc3c2)c2ccccc12 (stereo not drawn) | -2 | -12
CCCCn1c(=O)c2c(nc3n2CCN3c2cccc(Cl)c2)n(C)c1=O | -1 | -2

A section of the results above, as a working copy:
SMILES | NPYLR7 ag | NPYLR7 ag max-min
O=C(NC1CCN(c2ccccc2C(=O)NC2CC2)CC1)OCc1ccccc1 | -1 | 5
Cc1noc(C)c1CCC(=O)N1CCN(c2ccccc2Cl)CC1 | -2 | -2
COc1ccc(CC(CC(=O)N[C@@H]2C[C@@H]3C[C@H]([C@H]2C)C3(C)C)C(=O)N[C@@H]2C[C@@H]3C[C@H]([C@H]2C)C3(C)C)cc1 (stereo partly drawn) | 3 | 3
COc1ccc(C(=O)C2CCCN(C(=O)CCc3ccccc3OC)C2)cc1F (stereo not drawn) | 2 | -4
O=C(c1ccc2c(c1)OCO2)C1CCCN(C(=O)c2csc(-c3cccs3)n2)C1 (stereo not drawn) | -4 | -5
CC(C)COc1nc(-c2ccc3c(c2)OCO3)n(-c2ccc(NC(=O)c3cccc(F)c3)cc2)n1 | -2 | 1

Not all compounds are listed (hit frequency here may not be typical).
